# Assay outcomes deposited in PubChem BioAssay by National Center for Advancing Translational Sciences (NCATS).
# TRPV1 potentiator – human TRPV1 potentiation. TRPV1-expressing cells, Fluo-8 calcium influx, capsaicin EC20 potentiation; host cell line not named in the record; control for the full effect not named in the record. potentiation, % at 8.33 µM. 320,000 tested, 0.02% active. Q8NER1; active means potentiation above 80%; inconclusive means 30% to 80%; inactive means below 30%; also: 0% is about no effect
#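 TRPV1-expressing cells were cultured overnight at 35.5C and loaded with Fluo-8 calcium dye for 40 to 90 min at room temperature. After a 10 s baseline, compound was added and calcium influx was read kinetically for 3 min (ex 480/em 520 nm).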
# TRPML1 ag – human mucolipin-1 channel agonism; Q9GZU1; TRPML1-expressing cells, Ca2+ dye fluorescence, FDSS; host cell line not named in the record; reference of the full effect not given here; activation, % (no concentration beside the values); 410,000 tested, 0.12% active; AID 624414; in the data active = activation above about 50%; inconclusive = about 30% to 50%; inactive = below about 30%; also: 0% is about no effect; the text of the record puts the active cut at 80%
# Target sequence (Q9GZU1 whole entry, looked up): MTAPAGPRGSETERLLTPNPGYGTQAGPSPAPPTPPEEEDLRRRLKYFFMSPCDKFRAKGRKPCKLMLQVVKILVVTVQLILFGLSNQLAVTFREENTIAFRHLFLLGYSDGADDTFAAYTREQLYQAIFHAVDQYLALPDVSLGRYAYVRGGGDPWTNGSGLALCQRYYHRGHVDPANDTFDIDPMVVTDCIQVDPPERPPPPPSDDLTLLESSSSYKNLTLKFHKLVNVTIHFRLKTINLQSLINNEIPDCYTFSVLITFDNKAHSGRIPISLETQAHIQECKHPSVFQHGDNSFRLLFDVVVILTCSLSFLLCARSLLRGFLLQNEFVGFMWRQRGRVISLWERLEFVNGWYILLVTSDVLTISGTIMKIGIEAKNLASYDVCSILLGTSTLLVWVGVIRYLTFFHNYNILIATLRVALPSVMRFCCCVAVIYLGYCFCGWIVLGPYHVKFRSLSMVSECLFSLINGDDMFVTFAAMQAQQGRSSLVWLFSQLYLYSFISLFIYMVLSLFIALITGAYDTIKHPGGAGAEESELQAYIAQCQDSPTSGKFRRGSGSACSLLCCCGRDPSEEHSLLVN
#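 Kinetic FDSS Ca2+ read in Tet-induced TRPML1-DL cells (ABD Ca8 dye plus quencher, 45-90 min RT loading): baseline, then compound, then 110 s agonist window; EC80 agonist 54-4 at 4uM final added afterwards for a 110 s antagonist window.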
# Six1-Eya2 inh – Six1/Eya2 interaction inhibition | Q15475+O00167 | AlphaScreen GST-Six1/His-Eya2 binding, biochemical; stronger effect = lower value; control for the full effect not named in the record | activity change, % (concentration not given with the values) | AID 651725 | 360,000 tested, 0.56% active; in the data active = activity change below about -65%; inconclusive = about -30% to -65%; inactive = above about -30%; also: % is scaled to controls: 0 for no effect and ±100 for the full control effect
#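 GST-Six1 + His-Eya2 (5X stock: 250/500 nM); Tris pH 8.0, 300 mM NaCl, 0.05% BSA, 0.02% Tween 20; GSH donor/Ni acceptor beads; 1 h 37 °C dark; AlphaScreen readout.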
# TRPML1 inh – blocks the human TRPML1 channel | Q9GZU1 | activity change, negative = inhibition, % (no concentration beside the values) | TRPML1-inducible cells, Ca2+ dye fluorescence, FDSS; stronger effect = lower value; inhibition of EC80 agonist-evoked calcium signal | 390,000 tested, 0.02% active; in the data active means activity change below about -50%; inconclusive means about -30% to -50%; inactive means above about -30%;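 also: stimulus is agonist 54-4 at its EC80 concentration; % is scaled to controls: 0 for no effect and ±100 for the full control effect; compound concentration not given in the record; the text of the record puts the active cut at -80%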
#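 Calcium fluorescence in TRPML1-DL cells induced overnight with Tet: a 110 s read after compound pin addition, then a 110 s antagonist read after challenge with 54-4 at 4 uM final (EC80).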
# CtBP-E1A blk – inhibitors of CtBP/E1A interaction; 340,000 tested, 0.49% active; AlphaScreen GST-E1A/His-CtBP binding, 1536-well; stronger effect = lower value; control for the full effect not named in the record; activity change, % (concentration not given with the values); AID 651724; in the data active means activity change below about -65%; inconclusive means about -30% to -65%; inactive means above about -30%; also: % is scaled to controls: 0 for no effect and ±100 for the full control effect
#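 AlphaScreen with 125 nM GST-E1A and 125 nM His-CtBP (5X stocks) in Tris pH 8.0, 300 mM NaCl, BSA, Tween 20, TCEP. Compounds preincubated 2 h at 37 deg C, then glutathione donor/nickel acceptor beads added for 1 h at 37 deg C in dark.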
# D2 PAM – positive allosteric modulators of human D2 dopamine receptor; P14416; DiscoveRx D2 beta-arrestin cells, luminescence, 90 min; 100% = 57 uM dopamine signal; potentiation, % (test concentration not listed); 360,000 tested, 0.23% active; AID 624464; active = potentiation of 50% or more; inconclusive = 30% to 50%; inactive = 30% or less;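 also: compound concentration not given in the record; tested on top of an EC20 dose of dopamine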
# Target sequence (P14416 whole entry, looked up): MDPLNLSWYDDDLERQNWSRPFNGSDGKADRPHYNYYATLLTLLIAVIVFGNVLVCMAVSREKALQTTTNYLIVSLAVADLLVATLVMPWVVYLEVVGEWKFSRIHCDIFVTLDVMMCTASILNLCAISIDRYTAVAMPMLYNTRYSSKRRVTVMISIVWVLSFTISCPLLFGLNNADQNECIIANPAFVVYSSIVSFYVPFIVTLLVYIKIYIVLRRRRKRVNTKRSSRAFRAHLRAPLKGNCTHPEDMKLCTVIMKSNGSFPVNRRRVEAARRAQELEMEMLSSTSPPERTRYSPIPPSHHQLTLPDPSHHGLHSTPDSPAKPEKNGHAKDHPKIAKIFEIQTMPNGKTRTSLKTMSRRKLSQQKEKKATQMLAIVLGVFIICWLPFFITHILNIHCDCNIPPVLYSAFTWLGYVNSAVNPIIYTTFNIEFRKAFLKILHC
#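 PathHunter beta-arrestin assay in DiscoveRx D2 cells. Compounds were added with an EC20 of dopamine (50 nM final) for 90 min at 37 deg C. Luminescence was read 1 h after detection reagent, with 57 uM dopamine as the EC100 control.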
# * hit, by the source's call; ? = inconclusive; . = not tested or not shown.
item	mol	TRPV1 potentiator	TRPML1 ag	Six1-Eya2 inh	TRPML1 inh	CtBP-E1A blk	D2 PAM
1	CC(C)(C)CC(=O)NCCCN1CCOCC1	10	-0.8	-4	18	7	-2
2	c1ccc(-c2nc(N3CCOCC3)c3ccccc3n2)nc1	9	-0.5	?	4	?	-14
3	Cc1cc(NC(=O)COC(=O)c2cccc(S(=O)(=O)N(C)C3CCCCC3)c2)no1	-14	0.6	-14	5	9	-1
4	Cc1ccc(S(=O)(=O)NCCSc2nnnn2C)cc1	-3	-0.1	0	2	2	-5
5	O=c1[nH]c(CN2CCN(c3ccccc3)CC2)nc2scc(-c3ccccc3)c12	7	-0.3	-1	-18	2	-10
6	COc1ccc(NC(=O)C2=NN(C3CCS(=O)(=O)C3)C(=O)CC2)cn1 (centres undefined)	-4	1.2	-2	13	.	12
7	COCCn1c(=S)[nH]c2ncccc2c1=O	0	-0.1	0	-2	2	9
8	CCOc1ccc(-n2ccn(CC(=O)NCCc3ccccc3)c(=O)c2=O)cc1	7	-0.1	3	1	5	3
9	CSc1nnc(C)c(=O)n1COC(=O)c1ccc([N+](=O)[O-])cc1	13	-0.9	0	-14	-1	6
10	O=C(CSCC(=O)Nc1cccc2ccccc12)Nc1cccc2ccccc12	0	1.2	3	1	.	-6
11	CC(NCC(O)COC1CCC(C(C)(C)C)CC1)c1ccccc1 (centres undefined)	0	0.3	5	13	.	-7
12	COc1cc(C=C(c2nc3ccccc3s2)c2nc3ccccc3s2)cc(OC)c1O	-4	1.0	2	20	17	-37

# Some of these compounds in order of heavy-atom count, descending:
item	mol	TRPV1 potentiator	TRPML1 ag	Six1-Eya2 inh	TRPML1 inh	CtBP-E1A blk	D2 PAM
10	O=C(CSCC(=O)Nc1cccc2ccccc12)Nc1cccc2ccccc12	0	1.2	3	1	.	-6
6	COc1ccc(NC(=O)C2=NN(C3CCS(=O)(=O)C3)C(=O)CC2)cn1 (centres undefined)	-4	1.2	-2	13	.	12
2	c1ccc(-c2nc(N3CCOCC3)c3ccccc3n2)nc1	9	-0.5	?	4	?	-14

# The listing continues:
item	mol	TRPV1 potentiator	TRPML1 ag	Six1-Eya2 inh	TRPML1 inh	CtBP-E1A blk	D2 PAM
13	CCCc1cc(=O)[nH]c(SCc2nc3ccccc3s2)n1	-3	0.9	-1	1	0	-1
14	CN(C)c1ccc(C=NC(CO)C(O)c2ccc([N+](=O)[O-])cc2)cc1 (centres undefined)	2	0.4	6	-6	-2	-8
15	COc1ccc(C(=O)c2cc([N+](=O)[O-])ccc2N2CCN(C)CC2)cc1	-2	1.3	1	-5	-11	-6
16	O=C(CNC(=S)N(Cc1ccccc1)Cc1cccnc1)N1CCOCC1	2	-0.9	3	-21	-3	-6
17	CCOc1ccccc1NC(=O)C(OC(=O)c1cnc(C)cn1)c1ccccc1 (centres undefined)	.	1.4	-3	25	6	23
18	Cc1ccc(OCc2cc(C(=O)N(CCO)Cc3cccs3)no2)cc1C	-11	0.8	-2	21	5	-6
19	CC1CC(C)CN(S(=O)(=O)c2ccc(C(=O)N3CCOCC3)cc2)C1 (centres undefined)	0	0.3	5	13	-5	1
20	O=C(NCc1cccc(C(F)(F)F)c1)C1CCCN(c2ncccn2)C1 (centres undefined)	-13	0.5	4	9	5	-7
21	O=C(Nc1nc(-c2ccc(S(=O)(=O)N3CCCC3)cc2)cs1)c1cccs1	-5	3.4	-73*	-9	-75*	13
22	O=C1/C(=C\c2ccc(O)cc2)SC(=S)N1c1cccnc1	-7	22	-4	3	-19	-8
23	CC(=O)c1sc(-c2ccccc2)cc1NS(=O)(=O)c1ccccc1	0	0.0	4	-21	2	0
24	Cc1nc2c(=O)[nH]n(C)c2nc1C	.	-0.9	-11	-1	1	6
25	COCCNC(=O)CN1N=C(c2ccc(C)cc2)CCC1=O	-3	-0.9	7	10	-1	-7
26	O=C1OCCN1C(=O)[C@H]1[C@H](c2ccc(F)cc2)C(c2ccccc2)=NN1c1ccccc1	.	0.0	22	1	19	1
27	O=C(O)c1ccc(NS(=O)(=O)c2cccc(C(=O)Nc3ccccc3[N+](=O)[O-])c2)cc1	5	3.3	-11	3	-19	0
28	COc1ccc(C(=O)O)cc1S(=O)(=O)NCc1cccnc1	-2	.	-3	.	-2	-7
29	Cc1nn(-c2ccccc2)c(C)c1[N+](=O)[O-]	-7	0.8	0	23	-21	-3
30	CCOc1ccc2oc(C(=O)NC3CCN(Cc4ccccc4)CC3)c(C)c2c1	4	1.8	-13	7	-12	-14
31	COCCn1c(C)cc2c(c1=O)C(c1ccco1)C(C#N)=C(N)O2 (centres undefined)	8	0.1	-1	31	8	-5
32	CCOC(=O)N1CCN(C(=O)CCC2CCCC2)CC1	-5	1.2	4	-2	8	-5
33	CC1(c2nnnn2-c2ccc3c(c2)OCCO3)CCC(=O)N1CCc1ccc(O)cc1 (centres undefined)	.	-0.4	2	.	3	.
34	O=C(Nc1ccon1)Nc1ccc(F)cc1F	24	-0.9	-7	10	-13	-1
35	Cc1cc(C)c(S(=O)(=O)N2CCCC2=O)c(C)c1N(C)S(C)(=O)=O	-41	-0.1	0	-12	6	-2
36	S=C(NCCNC(=S)Nc1ccccc1)Nc1ccccc1	-5	0.3	-2	27	.	16
37	O=C(COC(=O)Cn1nnc2ccccc21)NC1CCCC1	-3	-1.0	4	-5	5	-1
38	Cc1ccc(NC(=O)c2cccc(Cl)c2)nc1	9	-0.2	0	-7	13	-10
39	COc1ccc(-c2nc3cc(C)c(Br)c(C)n3c2Cc2cccc(F)c2)cc1OC	.	-0.2	-18	11	-12	-3
40	C[C@@H]1C=C(C(=O)NCc2nc3ccccc3[nH]2)O[C@H](OCCCCO)C1	.	-1.0	0	30	8	-12
41	N#C/C(=C\c1cn(Cc2ccc(C#N)cc2)c2ccccc12)C(=O)NCc1cccs1	14	1.2	4	-2	1	-10
42	COc1ccc(NC(=O)c2cccc(N3C(=O)C4CCC(C)CC4C3=O)c2)c(OC)c1 (centres undefined)	-6	2.3	-1	41	-15	0
43	COc1ccc(-c2[nH]ncc2CN(C)CCN2CCOCC2)cc1F	1	-0.5	6	-5	.	-8
44	c1ccc(Oc2cc(-c3ccccc3)ncn2)cc1	-12	0.7	19	5	21	-12
45	Cc1cc(C)n(CCSCC(=O)O)n1	20	0.6	3	-4	-1	1
46	CCCCC(=O)NC(c1ccc(OC)cc1)c1ccc2cccnc2c1O (centres undefined)	.	1.3	-7	-15	18	6
47	Cc1nc(N)sc1-c1csc(Nc2cccc(O)c2)n1	-5	1.0	-69*	8	?	-4
48	Cc1cccn2c(CNCCCn3ncc4ccccc43)c(C(=O)N3CCCCC3)nc12	?	0.7	-1	-1	3	-5

# 4 consecutive records from above, quoted:
item	mol	TRPV1 potentiator	TRPML1 ag	Six1-Eya2 inh	TRPML1 inh	CtBP-E1A blk	D2 PAM
42	COc1ccc(NC(=O)c2cccc(N3C(=O)C4CCC(C)CC4C3=O)c2)c(OC)c1 (centres undefined)	-6	2.3	-1	41	-15	0
43	COc1ccc(-c2[nH]ncc2CN(C)CCN2CCOCC2)cc1F	1	-0.5	6	-5	.	-8
44	c1ccc(Oc2cc(-c3ccccc3)ncn2)cc1	-12	0.7	19	5	21	-12
45	Cc1cc(C)n(CCSCC(=O)O)n1	20	0.6	3	-4	-1	1

# Additional entries follow.
item	mol	TRPV1 potentiator	TRPML1 ag	Six1-Eya2 inh	TRPML1 inh	CtBP-E1A blk	D2 PAM
49	CC(OC(=O)C1CC(O)CN1S(=O)(=O)c1ccccc1[N+](=O)[O-])C(=O)N1CCCCC1 (centres undefined)	11	0.1	-3	-10	.	-7
50	O=c1cc(NCc2ccccc2)nc2n1CCCS2	1	2.7	6	3	9	8
51	CCOC(=O)c1cc2sc(C)cc2n1CC(=O)N1CCN(C(=O)c2ccco2)CC1	3	0.0	-6	36	12	-8
52	CC(C)c1ccccc1NC(=S)NC1CCCCC1	-24	1.3	9	3	5	-1
53	CC1=C(C(=O)Nc2ccc(C)cc2C)C(c2ccc(C)o2)NC(=S)N1 (centres undefined)	-13	0.3	7	6	-8	6
54	CC1CCN(C(=O)CCN2C(=O)/C(=C/c3cccs3)SC2=S)CC1	3	0.6	-26	1	-3	-2
55	O=C(CCc1nnc(Cc2ccc3c(c2)OCO3)o1)N(CC1CCC1)CC1CCCO1 (centres undefined)	-18	0.2	15	5	7	-3
56	COc1cccc(C2C3CN(C)CC=C3C(C#N)=C(N)C2(C#N)C#N)c1OC (centres undefined)	7	6.4	-3	6	0	-35
57	CCC(C)NC(=O)c1n[nH]c(=O)c2ccccc12 (centres undefined)	14	0.5	8	0	6	-3
58	CN(C)CCCNc1ncnc2sc(-c3ccccc3)cc12	-2	0.1	2	?	.	-15
59	C=C(C)n1c(=O)[nH]c2ccccc21	0	2.8	-3	22	0	-9
60	CCCc1ccc(OCCNC(=O)c2ccccc2Br)cc1	-21	0.4	16	-11	25	0
61	O=C(Cn1cc(C(=O)C2CC2)c2ccccc21)Nc1ccccc1Cl	?	0.2	6	-4	1	-1
62	COC(=O)c1ccccc1NC(=O)Cn1cnc2c1c(=O)n(C)c(=O)n2C	.	0.6	-1	-8	5	-1
63	O=C(c1cnc2nc3ccccc3n2c1)c1cc(F)ccc1O	4	4.9	-17	18	-12	-6
64	COc1cccc(NC(=O)CCCCCN2C(=O)[C@@H]3Cc4ccccc4CN3C2=O)c1	-29	-0.4	0	37	7	-20
65	COc1ccc(Cl)cc1NC(=S)Nc1cccc(C)c1	18	0.1	-7	10	-4	-9
66	COc1ccc(S(=O)(=O)NC(CCSC)C(=O)NC2CCCCC2)cc1 (centres undefined)	-1	-0.6	-4	6	2	0
67	O=C(CC1C(=O)NCCN1Cc1cccc(Oc2ccccc2)c1)NCCCn1cccn1 (centres undefined)	11	0.1	-1	16	0	-4
68	Oc1ccc(-c2cccc(-c3ccc(O)cc3)n2)cc1	-7	-0.2	-5	-5	-11	0
69	CCN(C(=O)COC(=O)c1cc(-c2ccccc2)nc2ccc(Br)cc12)C1CCS(=O)(=O)C1 (centres undefined)	2	0.5	3	-7	1	-9
70	CN1C[C@@H]2C(c3ccc(Cl)nc3)C3(c4cccnc4)CC2(C3)[C@H]1c1ccccc1 (some centres undefined)	26	0.2	-4	6	-3	-5
71	Clc1ccccc1Cn1nnc2c(N3CCCC3)ncnc21	-5	0.1	0	1	0	7
72	Cc1ccc(NC(=O)CS(=O)CC(=O)Nc2ccc3c(c2)OCO3)cc1Cl (centres undefined)	1	0.7	-3	-13	-12	-15
73	C=CCn1c(C)cc(-c2csc(N)n2)c1C	1	3.0	-12	-2	-27	-7
74	CCC1(C)C(Nc2c(C)cccc2C)=NC(=S)N1c1ccc(NC(C)=O)cc1 (centres undefined)	7	-0.6	6	28	8	-11
75	O=C(CCC(=O)N1CCN(C(=O)c2ccco2)CC1)c1ccc(F)cc1	-3	0.4	-3	1	-17	-14
76	COCc1c(C(=O)OCC(=O)N2CCCC2=O)oc2ccccc12	6	-0.1	8	-7	.	-1
77	CSCCC(NC(=O)C12CC3CC(CC(C3)C1)C2)C(=O)OCC(=O)c1ccccc1 (centres undefined)	-17	1.8	9	-25	-8	-14
78	COc1cc(CCC(=O)OCC(=O)Nc2ccccc2OC(F)F)cc(OC)c1OC	1	-0.6	2	16	8	-4
